High-throughput results deposited in PubChem by National Center for Advancing Translational Sciences (NCATS).
D2 agonist = agonists of human D2 dopamine receptor (beta-arrestin). DiscoveRx PathHunter D2 beta-arrestin, luminescence, 90 min; 100% = 57 uM dopamine signal. P14416. activation, % (no concentration beside the values). 0.084% of 360,000 active; in the data active = activation above about 40%; inconclusive = about 15% to 40%; inactive = below about 15%; also: compound concentration not given in the record; the text of the record calls up to 30% inactive
Target sequence (P14416 whole entry, looked up): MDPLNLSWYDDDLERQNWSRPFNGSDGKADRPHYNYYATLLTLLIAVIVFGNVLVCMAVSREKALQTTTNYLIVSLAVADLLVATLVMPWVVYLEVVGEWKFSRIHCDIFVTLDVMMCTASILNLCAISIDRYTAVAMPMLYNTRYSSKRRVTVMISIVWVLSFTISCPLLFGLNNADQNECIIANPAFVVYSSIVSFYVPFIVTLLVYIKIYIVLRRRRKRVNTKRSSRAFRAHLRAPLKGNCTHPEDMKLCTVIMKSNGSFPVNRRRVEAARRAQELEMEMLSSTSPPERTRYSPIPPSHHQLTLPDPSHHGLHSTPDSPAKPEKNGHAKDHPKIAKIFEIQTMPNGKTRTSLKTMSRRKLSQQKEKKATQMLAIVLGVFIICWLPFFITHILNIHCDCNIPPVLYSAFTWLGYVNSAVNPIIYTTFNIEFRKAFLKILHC
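DiscoveRx PathHunter D2 beta-arrestin cells (2,100/well) attached overnight, then compound-stimulated 90 min at 37 C in HBSS/10 mM HEPES/0.1% Tween-20 buffer; beta-galactosidase complementation read by luminescence after 1 h at ambient temperature. Dopamine 57 uM final (EC100) as control.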
TRPML1 agonist = agonists of human TRPML1 channel | Q9GZU1 | AID 624414 | 0.12% of 410,000 active | TRPML1-expressing cells, Ca2+ dye fluorescence, FDSS; host cell line not named in the record; reference of the full effect not given here | activation, % (concentration not given with the values); in the data active = activation above about 50%; inconclusive = about 30% to 50%; inactive = below about 30%; also: 0% is about no effect; the text of the record puts the active cut at 80%
Target sequence (Q9GZU1 whole entry, looked up): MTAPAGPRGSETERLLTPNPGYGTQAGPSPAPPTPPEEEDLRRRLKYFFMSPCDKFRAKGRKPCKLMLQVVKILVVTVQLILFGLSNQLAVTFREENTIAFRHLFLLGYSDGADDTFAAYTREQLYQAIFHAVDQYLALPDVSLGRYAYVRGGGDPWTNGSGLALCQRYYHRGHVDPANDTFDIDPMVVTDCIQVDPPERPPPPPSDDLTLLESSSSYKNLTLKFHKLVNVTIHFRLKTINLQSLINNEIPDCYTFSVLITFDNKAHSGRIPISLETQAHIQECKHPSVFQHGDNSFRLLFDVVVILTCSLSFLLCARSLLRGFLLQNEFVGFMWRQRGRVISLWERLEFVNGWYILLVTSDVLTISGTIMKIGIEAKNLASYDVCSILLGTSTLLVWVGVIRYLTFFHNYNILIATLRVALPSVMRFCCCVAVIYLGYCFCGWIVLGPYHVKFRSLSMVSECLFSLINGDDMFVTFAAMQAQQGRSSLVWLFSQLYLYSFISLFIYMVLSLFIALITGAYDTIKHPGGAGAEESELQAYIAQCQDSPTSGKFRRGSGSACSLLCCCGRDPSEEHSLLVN
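Tetracycline-induced TRPML1-DL cells are seeded and incubated overnight before loading with a no-wash Ca2+ dye and quencher. Agonist activity is taken from the 110 s fluorescence read following compound pin-transfer on an FDSS, before EC80 54-4 challenge.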
Six1-Eya2 inh = inhibitors of human Six1/Eya2 interaction. Q15475+O00167. AlphaScreen GST-Six1/His-Eya2 binding, biochemical; hits give low values; control for the full effect not named in the record. 0.56% of 360,000 active. activity change, % (concentration not given with the values); in the data active = activity change below about -65%; inconclusive = about -30% to -65%; inactive = above about -30%; also: % is scaled to controls: 0 for no effect and ±100 for the full control effect
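GST-Six1 + His-Eya2 (5X stock: 250/500 nM); Tris pH 8.0, 300 mM NaCl, 0.05% BSA, 0.02% Tween 20; GSH donor/Ni acceptor beads; 1 h 37 °C dark; AlphaScreen readout.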
D2 PAM = potentiates the human D2 dopamine receptor allosterically. P14416. DiscoveRx D2 beta-arrestin cells, luminescence, 90 min; 100% = 57 uM dopamine signal. potentiation, % (no concentration beside the values). 0.23% of 360,000 active. AID 624464; active = potentiation of 50% or more; inconclusive = 30% to 50%; inactive = 30% or less;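 also: compound concentration not given in the record; tested on top of an EC20 dose of dopamine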
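PathHunter D2 cells, attached overnight at 37 deg C, received compound in DMSO plus dopamine at EC20 (50 nM final) for 90 min at 37 deg C. Beta-arrestin recruitment was read as luminescence after 1 h with detection reagent at ambient temperature.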
PINK1 modulator = changes PINK1 expression | PINK1 immunofluorescence, high-content cytometry, 24 h | 0.2% of 410,000 active | AID 624263 | Potency, µM (top dose mostly 76.6 µM), inactives show at the top dose activation (PINK1 increase), most hits filed as activators; active = well fitted activation curve with a large enough effect; inconclusive = small, poorly fitted or top-dose-only effect; inactive = flat fitted curve, though single readings scatter; cell line not stated here;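 also: potency is read from the fitted curve at half-maximal effect; % of control where 0% means no effect; nearly all actives have a fitted effect of over 65% in size; a mitochondrial uncoupler was the plate control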
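PINK1 protein level read as immunofluorescence by microplate cytometer in a fixed, stained stable cell line after 24 h exposure to five compound concentrations, with CCCP as control.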
TRPML1 inh = inhibitors of human TRPML1 channel; Q9GZU1; TRPML1-inducible cells, Ca2+ dye fluorescence, FDSS; hits give low values; inhibition of EC80 agonist-evoked calcium signal; activity change, negative = inhibition, % (no concentration beside the values); 0.02% of 390,000 active; in the data active means activity change below about -50%; inconclusive means about -30% to -50%; inactive means above about -30%;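 also: stimulus is agonist 54-4 at its EC80 concentration; % is scaled to controls: 0 for no effect and ±100 for the full control effect; compound concentration not given in the record; the text of the record puts the active cut at -80%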
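Tet-induced TRPML1-DL cells loaded with Ca8 no-wash calcium dye were read kinetically on FDSS. Compound addition was followed by EC80 agonist 54-4 (4 uM final); inhibition was read over 110 s.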
* marks the source's active call; other numbers are inactive results; u = inconclusive; x = not tested or not shown; [ ] = remark or other dose.

#	SMILES	D2 agonist	TRPML1 agonist	Six1-Eya2 inh	D2 PAM	PINK1 modulator	TRPML1 inh
1	CC1(c2ccc3c(c2)OCCCO3)NC(=O)N(CC(=O)NCCc2ccc(F)cc2)C1=O (stereo unspecified)	-3.8	-0.4	9	-12	-0.4%	-1
2	COc1cc(COC(=O)c2cnc(C)cn2)c(OC)cc1Br	-6.2	-0.4	2	-3	0.1%	-4
3	Cc1ccnc(SCC(=O)N2CCN(C(c3ccccc3)c3ccccc3)CC2)n1	-3.8	1.7	-4	-3	-1.6%	6
4	CC(C)OCCCNC(=O)c1ccc2c(c1)ncn2C1CCCC1	-1.3	-0.2	6	-7	1.2%	-8
5	COc1cc([N+](=O)[O-])ccc1NC(=O)COC(=O)CCOc1ccc(C)cc1	6.7	3.5	4	2	5.3%	-19
6	O=c1cnnc(SCc2ccc([N+](=O)[O-])cc2)[nH]1	2.4	-0.3	1	-4	1.3%	-1
7	Cc1ccc(C)c(CSc2nnc3[nH]c(=O)cc(C)n23)c1	x	1.5	x	x	12%	9
8	Cc1nc2ccc(Cl)cc2c(-c2ccccc2)c1CC(=O)O	-4.5	-0.2	0	0	-0.6%	0
9	Cc1c(C(=O)NNC(=O)c2ccccc2O)oc2ccc(Br)cc12	-4.9	-0.3	-16	-1	3.1%	9
10	COc1ccc(C2Nc3ccccc3C(=O)N2c2ccc(F)cc2)cc1CSc1ccccn1 (stereo unspecified)	2.2	0.4	18	-9	u	-3
11	CCOc1ccc(C(=O)c2cn(CC(=O)Nc3ccc(F)cc3)c3cc4c(cc3c2=O)OCCO4)cc1	x	0.8	x	x	1.8%	9
12	O=c1ccn([C@@H]2O[C@H](CNCc3ccccc3OCc3ccc(Cl)cc3Cl)[C@@H](O)[C@H]2O)c(=O)[nH]1	-4.1	-0.5	0	-6	1.2%	7
13	O=C(/C=C/c1ccc([N+](=O)[O-])cc1)N1CCN(S(=O)(=O)c2ccccc2)CC1	-3.3	0.6	0	-7	0.4%	22
14	CC(=O)NC(CC(=O)N(Cc1ccccc1)c1ccc(C)cc1)c1ccccc1 (stereo unspecified)	-1.3	-0.2	-7	1	-1.9%	-5
15	Cc1nnsc1C(=O)NC1CCCCC1	-1.3	0.0	4	-8	-4.5%[38.3 µM]	3
16	CCOC(=O)[C@H]1[C@H]2COc3ccc(OC)cc3[C@@H]2N2C(=O)CN(Cc3ccc(F)cc3)C(=O)[C@@]12C	1.0	-0.3	-6	-4	1.4%	-6
17	CCOC(=O)c1cc2c(=O)n3ccccc3nc2n(CCOC)c1=NC(=O)c1cc2ccccc2o1	x	0.2	x	x	1.0%	6
18	CN(C)C(=O)c1ccc(NC(=O)c2ccccc2-c2ccccc2)cc1	6.6	0.0	0	-2	-0.2%	11
19	COC(=O)c1c(NC(=O)c2cccc(OC)c2)sc2c1CCC(C(C)(C)C)C2 (stereo unspecified)	x	1.4	x	x	0.4%	-20
20	Cc1ccc(C)c2nc(SCC(=O)N3CCCc4ccccc43)c(C#N)cc12	-3.4	0.1	4	-6	-3.0%[38.3 µM]	2
21	CC(=O)Nc1ccc(Nc2nc(C)c([N+](=O)[O-])c(Nc3ccc(NC(C)=O)cc3)n2)cc1	1.5	1.0	3	-16	-0.8%	-3
22	Cc1cc(C2N=C(N)Nc3nc4ccccc4n32)c(C)n1-c1ccccc1Cl (stereo unspecified)	-2.6	0.4	-28	-11	-4.8%[38.3 µM]	0
23	c1cnc(Sc2ccc3nnnn3n2)nc1	-3.5	-0.4	16	-4	-0.3%	-8
24	CSc1nc(SC)c2c3c(oc2n1)COC(C)(C)C3	-2.2	5.3	-1	11	0.9%	-6
25	Cc1cccc(-n2ncc3c2CCCC3NC(=O)CCN2CCCO2)c1C (stereo unspecified)	0.9	-0.2	8	6	-1.4%	-6
26	CCCCN(C(=O)CSCc1ccc(C)cc1)c1c(N)n(CCC)c(=O)[nH]c1=O	1.8	-0.2	-1	-8	2.6%	16
27	CCC(C)(C)NC(=O)C(c1ccc(F)cc1)N(Cc1cccc(OC)c1)C(=O)c1cnccn1 (stereo unspecified)	1.6	-0.2	10	6	-2.4%	-6
28	O=C(/C=C/c1ccco1)c1cccc([N+](=O)[O-])c1	1.7	1.7	u	4	2.1%	-21
29	Cc1ccc(NC(=O)c2cc3ccccc3oc2=O)cc1S(=O)(=O)N(C)C	4.5	0.2	6	-5	1.3%	-16
30	CCOc1ccc(CC(=O)NNC(=O)/C=C/C(=O)O)cc1	-1.2	-0.1	8	-1	-1.9%	-9
31	CCCN1CCN(CCCNC(=O)CCN2C(=O)COc3ccccc32)CC1	7.1	0.6	13	-7	1.0%	5
32	CCC(C)NC(=O)c1oc2ccc(S(=O)(=O)N3CCC4(CC3)OCCO4)cc2c1C (stereo unspecified)	2.0	0.0	-5	-1	1.1%	-1
33	Cc1ccc(CN(C(=O)COc2ccc(Cl)c(C)c2)C2CCS(=O)(=O)C2)o1 (stereo unspecified)	x	2.7	x	x	-0.9%	-2
34	COCCNc1sc(S(=O)(=O)c2ccc(C)cc2)nc1S(=O)(=O)c1ccc(C)cc1	x	2.1	x	x	-0.2%	-9
35	CC(=O)c1cccc(NC(=O)CC(c2ccc(C)cc2)N2Cc3ccccc3C2=O)c1 (stereo unspecified)	x	2.4	x	x	-4.4%	10
36	Cc1ncc(CO)c(/C=N/NC(=S)Nc2ccc(F)cc2)c1O	-3.1	0.9	-90*	-25	1.2%	47
37	COc1ccc(/C=N/Nc2cc(C)nc(N)n2)cc1	6.4	0.6	-2	-19	1.6%	4
38	CC(=O)Nc1ccc(NS(=O)(=O)c2ccccc2)c2ccccc12	-0.4	0.5	-4	-5	2.5%	-2
39	Cn1ccc2c(N3CCC3)cc3c(c21)C1CCC3O1 (stereo unspecified)	4.3	-0.7	-12	3	2.5%	-17
40	OC(c1ccccc1)(c1ccccc1)C1CCN(CCCOc2cccc(OC(F)(F)F)c2)CC1	x	-0.4	-2	x	-0.5%	x
41	CCOc1cccc(C2C(C(=O)c3ccc(C)o3)=C(O)C(=O)N2CCCn2ccnc2)c1 (stereo unspecified)	-3.7	2.0	-11	10	0.1%	3
42	COc1ccc(C(=O)NCc2ccc3c(c2)CCN3C(=O)c2ccncc2)cc1	x	-0.2	x	x	0.0%	13
43	O=C(CSc1nc2c(oc3ccccc32)c(=O)n1Cc1ccco1)Nc1cccc(Cl)c1	x	-0.2	x	x	4.9%	-4
44	COc1cccc(-n2c(CNC(=O)OC(C)(C)C)n[nH]c2=S)c1	3.5	0.2	9	8	3.5%	-2
45	Cc1cc(NC(=O)CCNS(=O)(=O)c2ccc3[nH]c(=O)oc3c2)ccc1Br	-5.5	0.0	0	-23	0.9%	-7

3 of the compounds above, screen by screen:
40	OC(c1ccccc1)(c1ccccc1)C1CCN(CCCOc2cccc(OC(F)(F)F)c2)CC1
41	CCOc1cccc(C2C(C(=O)c3ccc(C)o3)=C(O)C(=O)N2CCCn2ccnc2)c1 (stereo unspecified)
42	COc1ccc(C(=O)NCc2ccc3c(c2)CCN3C(=O)c2ccncc2)cc1
Assay by compound | 40 | 41 | 42
D2 agonist | x | -3.7 | x
TRPML1 agonist | -0.4 | 2.0 | -0.2
Six1-Eya2 inh | -2 | -11 | x
D2 PAM | x | 10 | x
PINK1 modulator | -0.5% | 0.1% | 0.0%
TRPML1 inh | x | 3 | 13

The results go on.
#	SMILES	D2 agonist	TRPML1 agonist	Six1-Eya2 inh	D2 PAM	PINK1 modulator	TRPML1 inh
46	CCc1cc2c(=O)n(Cc3ccco3)c(SCC(=O)N3CCCc4ccccc43)nc2s1	-2.7	1.0	-4	-6	-1.0%	-22
47	Cc1cc(C)n(-c2nc3ccccc3c3nc(C)nn23)n1	-1.7	0.0	4	-3	4.2%	-6
48	Cc1occc1C(=O)NNC(=O)COc1ccc(Br)cc1Br	-3.9	-1.0	-2	-14	1.3%	-13
49	COC(=O)CC1NCCNC1=O (stereo unspecified)	0.7	0.1	7	5	-1.8%	2
50	COc1ccc(CCN2C(=O)c3ccncc3C2=O)cc1OC	-1.1	-0.5	-1	-5	0.4%	-2
51	CCNC(=O)C1CCCN(C(=O)c2cccc(Cl)c2)CC1 (stereo unspecified)	-3.0	-0.2	4	-4	1.5%	x
52	CC(=O)CC(=O)Nc1ncccn1	-0.9	0.1	-6	-5	3.4%	30
53	CCn1nc(C)c(CN2CCc3c([nH]c4ccccc34)C2c2ccc(F)c(OC)c2)c1C (stereo unspecified)	0.7	-0.7	-23	-10	-0.3%	14
54	CC(c1ccccc1)N1CCC(CNC(=S)Nc2cccc(Cl)c2)C1 (stereo unspecified)	-0.9	-0.4	-3	-17	8.8%	12
55	Cc1ccc(NC(=O)c2ccc(C)c(S(=O)(=O)N3CCCCCC3)c2)cc1	x	4.0	x	x	2.7%	17
56	COc1ccc(NC(=O)CN(C)C(=O)Cc2coc3cc(C)c(C)cc23)cc1	-2.9	0.5	3	-14	-0.2%	16
57	Cc1cc(C)c(N=Cc2c(O)c3ccccc3oc2=O)c(C)c1	-2.2	0.1	-17	-4	7.0%	20
58	CC(C)c1ccc2occ(CC(=O)N(Cc3ccc(F)cc3)C3CCS(=O)(=O)C3)c2c1 (stereo unspecified)	x	0.5	x	x	-0.2%	-12
59	C=Cc1ccc(Cn2c(=O)n(-c3ccccc3C)c(=O)c3c4c(sc32)CN(C(C)=O)CC4)cc1	x	0.8	x	x	3.7%	9
60	Cc1ccccc1C(=O)N1CCC(C(=O)Nc2ccc(S(=O)(=O)N3CCOCC3)cc2)CC1	-2.3	-0.4	5	-2	-0.8%	-5
61	CCN1CCN(C(c2ccc(OC)c(OC)c2)c2nnnn2C(C)(C)C)CC1 (stereo unspecified)	-1.3	-0.9	0	-6	-0.8%	-8
62	CC1CCN(CC(=O)Nc2ccc(S(=O)(=O)N3CCCC(C)C3)cc2)CC1 (stereo unspecified)	-0.1	0.6	-1	2	3.7%	10
63	CCOC(=O)C1(Cc2cccc(Cl)c2)CCCN(C(=O)c2cc(C)n(C)n2)C1 (stereo unspecified)	-4.3	-0.2	3	-4	-0.1%	5
64	Cc1ccc(-c2nn(-c3ccccc3)cc2C(=O)NCCCN2CCCC2=O)cc1	2.8	1.8	0	-5	-0.5%	4
65	O=C(Nc1ccccc1C(F)(F)F)c1cc2nc(-c3ccccc3)cc(-c3ccccc3)n2n1	x	-0.8	x	x	1.2%	6
66	Cc1ccc(Cn2ncc3c(N4CCN(Cc5ccc(Cl)cc5)CC4)ncnc32)cc1	-1.8	-0.1	2	-13	4.8%	41
67	O=C(Nc1ccc(OC(F)(F)F)cc1)c1cc2ccccn2n1	x	0.4	x	x	1.1%	-19
68	CCOC(=O)c1nnsc1Nc1ccc(C)c(C)c1	-3.5	0.8	7	-7	0.7%	-2
69	COc1ccc(OC)c(C(c2nnnn2Cc2ccccc2)N2CCN(C)CC2)c1 (stereo unspecified)	-0.6	0.2	-4	-13	-2.2%	8
70	Cc1ccc(O)c(-c2ccnc3cc(-c4ccc(Cl)cc4)nn23)c1	x	0.2	x	x	8.8%	-9
71	CCCCc1ccc(-n2nc3cc(C)c(NC(=O)c4ccc(C#N)cc4F)cc3n2)cc1	x	-0.5	x	x	-1.2%	-5
